# Bioassay records from PubChem BioAssay.
# Cruzain noTriton: cruzain (T. cruzi) inhibition without detergent. P25779. Potency, µM, without a hit: max response, negative = inhibition, actives largely listed as inhibitors. purified cruzain, Z-FR-AMC fluorescence, no detergent. 200,000 compounds, 2.3% hits. AID 1476; active = well fitted curve in the direction sought with a large enough effect; inconclusive = small, poorly fitted or top-dose-only effect, or another doubt; inactive = no such curve, though single readings can be large; an effect the other way counts as inactive or inconclusive;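 also: plate controls were enzyme without inhibitor for no effect and buffer without enzyme for full effect; nearly all actives have a fitted effect of over 40% in size; top concentration of the series not given in the record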
# Target sequence (P25779 123-467 limits assumed): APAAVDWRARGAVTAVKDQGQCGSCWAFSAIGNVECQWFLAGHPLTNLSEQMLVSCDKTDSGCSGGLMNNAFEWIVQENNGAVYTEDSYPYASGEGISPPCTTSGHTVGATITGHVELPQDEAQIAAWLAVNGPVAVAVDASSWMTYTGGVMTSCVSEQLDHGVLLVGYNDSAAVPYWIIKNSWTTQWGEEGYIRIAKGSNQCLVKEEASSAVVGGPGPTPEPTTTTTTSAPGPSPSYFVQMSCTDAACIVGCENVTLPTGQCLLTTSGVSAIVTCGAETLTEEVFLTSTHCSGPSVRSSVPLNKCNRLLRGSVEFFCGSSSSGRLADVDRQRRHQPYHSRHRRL
#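 Purified cruzain at 1.5 nM, pre-incubated 15 min with compound at room temperature in 100 mM sodium acetate pH 5.5, 5 mM DTT, 0.00005% Triton X-100. Reaction started with 2 uM Z-FR-AMC; AMC fluorescence increase over 60 s gives rate.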
# NS1 inh: blocks influenza NS1 protein function | S. cerevisiae slowed by influenza A NS1, growth recovery by OD600 | Potency, µM (titrated, usually from 46.1 µM), for inactives: at the top dose activity, positive = more growth | 270,000 compounds, 0.4% hits; also: actives are rising curves; nearly all actives have a fitted effect of over 50% in size
#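 Compounds were scored for reversing the slow growth caused by influenza A NS1 in S. cerevisiae, measured by optical density at 600 nm. Assay medium contained 2% galactose at pH 6.0; NS1-free yeast of the same strain were the positive control.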
# SARS PLP yeast: inhibitors of SARS-CoV papain-like protease in yeast; Potency, µM (doses to about 32.9 µM), without a hit: at the highest dose activity, positive = growth rescue; S. cerevisiae expressing SARS-CoV PLpro, growth rescue; control for the full effect not named in the record; AID 485353; 330,000 compounds, 0.19% hits; also: 0% is about no effect; nearly all actives have a fitted effect of over 55% in size; growth read by luminescence after 48 h
# Lassa entry inh: Lassa virus entry inhibition; 300,000 compounds, 1.2% hits; Potency, µM (highest dose often 37.9 µM), for inactives: top-dose activity change, negative = inhibition, actives largely listed as inhibitors; Lassa virus pseudotype entry inhibition, cell reporter; control for the full effect not named in the record; AID 540256; active means well fitted inhibition curve with a large enough effect; inconclusive means small, poorly fitted or top-dose-only effect, or effect the other way; inactive means flat fitted curve, though single readings scatter; tested in HEK293 cells; also: % is scaled to controls: 0 for no effect and ±100 for the full control effect; nearly all actives have a fitted effect of over 50% in size; luciferase read-out
# Cruzain Triton: inhibitors of Trypanosoma cruzi cruzain with detergent | P25779 | purified cruzain, Z-FR-AMC fluorescence, 0.01% Triton | Potency, µM, without a hit: max response, negative = inhibition, hits mostly inhibitors | 200,000 compounds, 0.43% hits | AID 1478; active = well fitted curve in the direction sought with a large enough effect; inconclusive = small, poorly fitted or top-dose-only effect, or another doubt; inactive = no such curve, though single readings can be large; an effect the other way counts as inactive or inconclusive;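 also: plate controls were neutral wells for no effect and buffer without enzyme for full effect; nearly all actives have a fitted effect of over 40% in size; top concentration of the series not given in the record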
#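 Detergent-containing run (0.01% Triton X-100) in acetate buffer pH 5.5 with 5 mM DTT: enzyme at 1.5 nM final, 15 min compound preincubation at room temperature, then 2 uM Z-FR-AMC substrate. Activity taken as 60 s fluorescence increase at 360/450 nm.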
# RE007 growth inh: less growth of the S. pombe RE007 Vpr strain. S. pombe RE007 Vpr strain, BacTiter-Glo ATP luminescence, 24 h; control for the full effect not named in the record. Potency, µM (titrated, usually from 92.2 µM), without a hit: at the highest dose activity change, negative = less growth. 360,000 compounds, 0.21% hits; active = well fitted falling curve with a large enough effect; inconclusive = small, poorly fitted or top-dose-only effect; inactive = no such curve, though single readings can be large or run the other way;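 also: % is scaled to controls: 0 for no effect and ±100 for the full control effect; nearly all actives have a fitted effect of over 50% in size; the assay follows cell death caused by Vpr and the record does not say whether a fall means rescue or toxicity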
#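 Fission yeast RE007 carrying one integrated HIV-1 vpr copy, seeded at OD 0.01 in PMG+AL medium with 23 nL pinned compound. Grown 24 h at 30 degrees; viability read by BacTiter-Glo luminescence after 5 min.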
# MARV entry inh: Marburg virus entry inhibition; AID 540276; 300,000 compounds, 1.8% hits; Potency, µM (titrated, usually from 37.8 µM), for the others: at the highest dose activity change, negative = inhibition, most hits filed as inhibitors; Marburg virus pseudotyped entry inhibition, cell reporter; control for the full effect not named in the record; about a third of the inactives were read at about 46 µM; active = well fitted inhibition curve with a large enough effect; inconclusive = small, poorly fitted or top-dose-only effect, or effect the other way; inactive = flat fitted curve, though single readings scatter; tested in HEK293 cells; about a fifth of its hits are not listed in these tables; also: % is scaled to controls: 0 for no effect and ±100 for the full control effect; luciferase read-out
# StopGo reporter: lowers the luciferase signal of an FMDV 2A StopGo reporter; AID 1159524; human cells with a luciferase reporter of 2A StopGo recoding; control for the full effect not named in the record; 410,000 compounds, 1.2% hits; Potency, µM (highest dose often 57.9 µM), for the others: at the highest dose signal change, negative = less light; active = well fitted falling curve with a large enough effect; inconclusive = small, poorly fitted or top-dose-only effect; inactive = no such curve, though single readings can be large or run the other way; tested in HEK293T cells; also: % is scaled to controls: 0 for no effect and ±100 for the full control effect; nearly all actives have a fitted effect of over 45% in size; luciferase light after 4 h
# * marks the source's active call; other numbers are inactive results; ? = inconclusive; / = not tested or not shown; & = joins results of further samples; [ ] = another dose, or the depositor's remark. Unless noted, calls follow the shape of the dose curve; as a rule, active means well fitted rising curve with a large enough effect; inconclusive means small, poorly fitted or top-dose-only effect; inactive means no such curve, though single readings can be large or run the other way. Potency is read from the fitted curve at half-maximal effect.
SMILES,Cruzain noTriton,NS1 inh,SARS PLP yeast,Lassa entry inh,Cruzain Triton,RE007 growth inh,MARV entry inh,StopGo reporter
Cn1c(O)c(C=Nc2cccc(C(F)(F)F)c2)c(=O)n(C)c1=O,/,1.2%,-1.2%,-15.9%[46.1 µM],/,-5.5%,22.5%[46.1 µM],-25.1%
Cc1ccc(NC(=S)N/N=C2/CCCc3c(C)cc(C)cc32)cc1,31.6µM*,0.7%,8.8%,-3.9%,-11.1%,5.3%,15.5%,10.7%
O=C(Cc1coc2cc(O)ccc12)NNC(=O)c1cccs1,/,/,1.1%,-13.2%[46.1 µM],/,3.3%,16.9%[46.1 µM],0.0%
CC(=O)c1ccccc1NC(=O)CC1(CC(=O)O)CCCCC1,/,/,2.0%,/,/,-4.5%,-6.4%[46.1 µM],-10.6%
Cc1ccc2nc(C)cc(C(=O)N3CCCC(CO)(Cc4ccccc4C)C3)c2c1 (stereo not drawn),/,-4.5%,-0.8%,?,/,-16.5%,?,10.6%
COc1ccccc1C(=O)NCCC(=O)NC1CCCCC1C (stereo not drawn),/,/,-0.9%,-2.6%,/,-23.4%,3.9%,?
CCOC(=O)N[C@H](Cc1c[nH]c2ccccc12)C(=O)NC1CC1,/,-0.5%,-0.8%,?,/,29.1%,-14.1%,-2.2%
CCOC(=O)Cn1cc(/C=C/[N+](=O)[O-])c2ccccc21,/,-67.2%,-4.5%,/,/,-7.7%,/,28.2µM*
COc1cccc(NC(=O)CN2C(=O)C(=O)N(C3CCCC3)C2=O)c1,/,/,-3.4%,-4.7%,/,6.7%,9.7%,1.7%
COc1cccc(CNc2ccc(F)c(Cl)c2)c1O,0.6%,-92.7%,6.1%,-0.2%,0.7%,?,-1.5%,15.7%
CC(C)(C)S(=O)(=O)c1ccc(S(=O)(=O)C(C)(C)C)s1,-13.7%,22.3%,-13.8%,/,1.4%,/,/,/
Cc1cccc(C)c1NC(=O)Nc1ccc2c(c1)OCO2,/,/,6.3%,24.0%,/,1.0%,9.9%[46.1 µM],16.1%
COC(=O)[C@H](C)NC(=O)Nc1ccccc1C(F)(F)F,13.7%,-10.9%,0.8%,6.3%,3.6%,-0.1%,-1.5%,-6.3%
Cc1noc(NS(=O)(=O)c2ccc(N/C=C\C(=O)c3cccc4ccccc34)cc2)c1C,/,/,-1.8%,-0.9%,/,-7.5%,?,-20.5%
Cc1cc2nc(-c3cc(NC(=O)c4cc5ccccc5o4)ccc3Cl)oc2cc1C,12.6µM*,/,/,17.9%[46.1 µM],-1.2%,/,/,20.0%
CCc1cccc(NC(=O)NC(=O)Cn2nnc(C(=O)OC)c2C(=O)OC)c1,-3.6%,28.1%,-13.7%,2.8%,-9.3%,-0.4%,12.4%,-3.9%
Cc1cccc(-n2cnc3sc(C)c(C)c3c2=O)c1,/,-7.7%,-1.3%,14.2%,/,-10.1%,-5.0%,6.0%
O=C(Nc1nccs1)c1cc(-c2ccncc2)nc2ccccc12,/,/,-1.3%,-1.6%,/,5.7%,?,-27.0%
CC(C)C1(c2ccsc2)NC(=O)NC1=O (stereo not drawn),/,/,/,3.9%,/,5.0%,6.6%,-2.2%
CCC(Sc1nc2cc(OC)c(OC)cc2c(=O)n1CCc1ccc(S(N)(=O)=O)cc1)C(=O)NCCOC (stereo not drawn),/,/,3.1%,-11.7%[46.1 µM],/,7.0%,?,-17.3%
CCCC(C)NC(=O)/C=C/c1cccc([N+](=O)[O-])c1 (stereo not drawn),2.5%,-5.5%,3.6%,-27.8%,-0.6%,-3.1%,-1.4%,-4.0%
COc1ccc(N2CCN(c3cc(C)nc4nc(-c5ccc(C)cc5)nn34)CC2)cc1,-4.5%,/,/,-9.8%[46.1 µM],0.6%,/,2.7%[46.1 µM],16.5%
C/C(CC(=O)Nc1cccc(C(F)(F)F)c1)=N\NC(=O)c1cnccn1,/,21.7%,-1.6%,/,/,15.5%,-7.8%[46.1 µM],12.2%
COc1ccc2c(c1)c1c(c(=O)n(-c3cccc(Cl)c3)c(=O)n1CC(=O)N1CCCC1)n2C,2.1%,/,/,-1.0%[46.1 µM],-1.9%,/,/,-17.5%
O=C(CCn1c2c(c3ccccc31)CCCC2)NNC(=O)c1ccccc1Cl,-6.3%,3.0%,6.4%,0.5%,-1.1%,-2.9%,?,-6.7%
NS(=O)(=O)c1ccc(CCNC(=O)c2ccc(Cl)nc2)cc1,/,0.6%,0.9%,/,/,-9.7%,/,-0.9%
Cc1ccc(NC(=O)c2ccc(CN3C(=O)CCn4nc(C)cc43)cc2)c(Cl)c1,15.5%,/,/,9.2%[46.1 µM],-3.5%,/,/,0.0%
O=C(CN1CCOCC1)Nc1ccccc1NC(=O)C1CCN(c2ncccn2)CC1,-0.4%,1.0%,0.5%,-2.5%,3.0%,-1.5%,1.7%,13.8%
Cc1noc(C)c1S(=O)(=O)N(CC(=O)NCc1ccc2c(c1)OCO2)c1ccc(C(C)C)cc1,-2.1%,-25.7%,1.8%,/,-5.5%,-5.2%,-0.3%,-16.0%
O=C(CCl)c1cc2c3c(c1)CC(=O)N3CCC2,/,4.8%,?,1.7%[46.1 µM],/,-10.2%,?,22.4µM*
CN(C)CCCNC(=O)C(=O)NCC(c1cccs1)S(=O)(=O)c1ccc(F)cc1 (stereo not drawn),/,/,-3.1%,2.1%,/,-11.9%,9.6%[46.1 µM],1.4%
COc1ccc(N(CC(=O)Nc2ccc(F)c(Cl)c2)S(=O)(=O)c2c(C)noc2C)cc1,13.8%,-41.6%,-13.8%,11.2%,-1.9%,5.7%,?,-3.9%
CC1=NN(C(=O)Cc2ccccc2)C(O)(c2ccccc2)C1 (stereo not drawn),/,/,1.1%,12.5%,/,1.4%,-2.7%&-2.7%[46.1 µM],13.9%
CCN(C(C)=O)c1cnc(C=NNC(N)=S)c2ccccc12,/,/,/,8.91µM*,/,-6.4%,?,2.3%
CC(C)CNC(=O)N1[C@H](c2cccs2)[C@@H](C)C(=O)[C@@H](C)[C@@H]1c1cccs1,4.0%,/,/,11.1%[46.1 µM],-0.4%,/,-11.3%[46.1 µM],-4.0%
O=C(NNc1ccccc1Cl)C(O)(c1cccc(C(F)(F)F)c1)c1cccc(C(F)(F)F)c1,3.4%,5.5%,-10.5%,?,-3.7%,/,18.4µM*,-19.7%
CCOC(=O)c1c(C)c(C(=O)NCCCOC)c(C)n1C,3.4%,8.9%,1.6%,7.3%,6.4%,-16.2%,5.3%,29.8%
COc1ccccc1NC(=O)N1CCCC1C(=O)Nc1ccc(NC(C)=O)cc1 (stereo not drawn),-3.7%,-4.2%,0.4%,8.3%,3.0%,-0.2%,?,7.1%
O=C(NCc1ccccc1Cl)C1CCC(=O)N(CCCN2CCCC2=O)C1 (stereo not drawn),/,1.4%,-1.1%,1.9%,/,24.0%,-1.9%,3.4%
CCN=C(NCC)SC1CC(=O)N(c2cccc(OCC)c2)C1=O (stereo not drawn),-1.0%,2.3%,-1.6%,6.7%,0.8%,-18.2%,-15.7%,-17.8%
COc1ccc(NC(=O)C2CC(=O)N(Cc3ccc(C)cc3)C2)cc1S(=O)(=O)N1CCCCC1 (stereo not drawn),?,-10.2%,-5.7%,?,-2.5%,-12.2%,?,-12.8%
CC1(NC(=O)c2cc(-c3cccs3)nn2-c2ccccc2)CCS(=O)(=O)C1 (stereo not drawn),/,/,-4.9%,?,/,4.3%,18.5%,-19.1%
CCCCSc1n[nH]c(N)n1,8.6%,-1.9%,13.9%,-1.0%,-1.0%,-10.1%,1.9%,2.5%
CC(C)(C)C(=O)Nc1ccc(NC(=O)c2ccco2)nc1,/,-9.6%,-1.9%,/,/,9.6%,?,6.31µM*
CC(C)NS(=O)(=O)c1ccc(OCC(=O)Nc2ccccc2F)cc1,-4.0%,4.4%,3.4%,-22.5%,0.8%,0.4%,6.2%,/
CCOC(=O)C1CCN(c2nc3ccccc3nc2Cl)CC1,0.5%,/,/,-4.0%[46.1 µM],-8.5%,/,5.0%[46.1 µM],-7.0%
CC1CCN(c2ncccc2C(=O)O)CC1,-2.8%,-0.9%,2.2%,8.7%,2.4%,12.1%,13.9%,/
Cc1ccc(NC(=O)CSc2nnc(-c3ccncc3)n2C)cc1S(=O)(=O)N1CCOCC1,/,/,-0.3%,-1.6%[46.1 µM],/,-4.4%,11.9%[46.1 µM],-1.3%
C=CCNC(=S)NNC(=O)C(CCC(C)C)CC(C)O (stereo not drawn),3.2%,-2.5%,-2.0%,-1.2%,8.7%,17.2%,-0.7%,24.9%
Cc1cc(C)c(N(CC(=O)NC(C)(C)C)C(=O)CNC(=O)c2cccs2)c(C)c1,/,-1.9%,-0.6%,0.8%[46.1 µM],/,-3.4%,-4.7%[46.1 µM],5.9%

# New compounds follow
SMILES,Cruzain noTriton,NS1 inh,SARS PLP yeast,Lassa entry inh,Cruzain Triton,RE007 growth inh,MARV entry inh,StopGo reporter
CCOC(=O)Cn1c(=S)[nH]c2c(oc3ccc(Cl)cc32)c1=O,-3.7%,3.7%,8.3%,17.6%,-3.6%,18.0%,25.5%,13.7%
Cn1ccs/c1=N\S(=O)(=O)c1ccc(Br)cc1,1.7%,1.7%,-0.8%,13.8%,-0.6%,11.6%,-0.4%[46.1 µM],58.6%[activator]
CCc1nn(CC(=O)NCCN(CC)CC)c(=O)c2cc3occc3n12,-4.9%,/,/,-9.0%[46.1 µM],-4.5%,/,?,-6.0%
CCOC(=O)CNC(=O)CNC(=O)c1ccc(OC(C)C)cc1,/,-1.2%,1.2%,/,/,23.2%,/,21.7%
CCCCCCN1C=CC(=C/C=C(\C#N)C(=O)OCC)C=C1,-4.9%,10.7%,-1.6%,1.3%,-9.9%,-15.0%,0.3%,-0.3%
NC(=O)Cn1c2[n+](c3ccccc31)CC(O)CS2 (stereo not drawn),2.8%,6.9%,10.3%,-5.1%,0.1%,-4.1%,-2.2%,3.5%
Cc1ccccc1C(=O)NCCNC(=O)c1ccco1,/,-0.8%,0.5%,2.0%,/,2.1%,4.6%[46.1 µM],-15.5%
CCOc1ccccc1NC(=O)C(NCC1(N2CCCCC2)CCCCC1)c1ccccc1 (stereo not drawn),/,1.2%,-1.1%,/,/,8.7%,/,-25.7%
